2A StopGo: FMDV 2A StopGo reporter, luciferase signal. human cells with a luciferase reporter of 2A StopGo recoding; control for the full effect not named in the record. Potency, µM (highest dose often 57.9 µM), for the others: at the highest dose signal change, negative = less light. hit rate 1.2% among 410,000. AID 1159524; active = well fitted falling curve with a large enough effect; inconclusive = small, poorly fitted or top-dose-only effect; inactive = no such curve, though single readings can be large or run the other way; tested in HEK293T cells; further: on the % scale 0 is the no-effect control and ±100 the full control effect; nearly all actives have a fitted effect of over 45% in size; luciferase light after 4 h
Cruzain noTriton: inhibitors of Trypanosoma cruzi cruzain without detergent | P25779 | purified cruzain, Z-FR-AMC fluorescence, no detergent | Potency, µM, for inactives: max response, negative = inhibition, actives largely listed as inhibitors | hit rate 2.3% among 200,000 | AID 1476; active means well fitted curve in the direction sought with a large enough effect; inconclusive means small, poorly fitted or top-dose-only effect, or another doubt; inactive means no such curve, though single readings can be large; an effect the other way counts as inactive or inconclusive;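 further: plate controls were enzyme without inhibitor for no effect and buffer without enzyme for full effect; nearly all actives have a fitted effect of over 40% in size; top concentration of the series not given in the record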
Target sequence (P25779 123-467 limits assumed): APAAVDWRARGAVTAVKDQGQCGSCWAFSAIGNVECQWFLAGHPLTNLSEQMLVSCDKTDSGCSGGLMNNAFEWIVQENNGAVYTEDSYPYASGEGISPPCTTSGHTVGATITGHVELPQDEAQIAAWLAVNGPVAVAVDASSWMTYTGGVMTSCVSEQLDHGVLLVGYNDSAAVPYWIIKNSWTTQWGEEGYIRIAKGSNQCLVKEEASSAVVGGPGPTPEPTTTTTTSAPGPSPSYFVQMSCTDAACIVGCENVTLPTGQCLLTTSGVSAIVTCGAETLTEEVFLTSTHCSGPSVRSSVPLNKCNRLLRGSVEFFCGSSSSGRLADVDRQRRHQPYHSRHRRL
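Detergent-free condition (0.00005% Triton X-100) in acetate buffer pH 5.5 with DTT. 1.5 nM enzyme and compound were pre-mixed 15 min, then 2 uM Z-FR-AMC substrate added; reaction progress from fluorescence change between first and third reads (60 s).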
NS1 function inh: inhibitors of influenza NS1 protein function; Potency, µM (titrated, usually from 46.1 µM), inactives show at the highest dose activity, positive = more growth; S. cerevisiae slowed by influenza A NS1, growth recovery by OD600; hit rate 0.4% among 270,000; further: actives are rising curves; nearly all actives have a fitted effect of over 50% in size
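Compounds were scored for reversing the slow growth caused by influenza A NS1 in S. cerevisiae, measured by optical density at 600 nm. Assay medium contained 2% galactose at pH 6.0; NS1-free yeast of the same strain were the positive control.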
RE007 growth inh: less growth of the S. pombe RE007 Vpr strain; S. pombe RE007 Vpr strain, BacTiter-Glo ATP luminescence, 24 h; control for the full effect not named in the record; Potency, µM (titrated, usually from 92.2 µM), for inactives: at the highest dose activity change, negative = less growth; hit rate 0.21% among 360,000; AID 651644; active = well fitted falling curve with a large enough effect; inconclusive = small, poorly fitted or top-dose-only effect; inactive = no such curve, though single readings can be large or run the other way;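 further: on the % scale 0 is the no-effect control and ±100 the full control effect; nearly all actives have a fitted effect of over 50% in size; the assay follows cell death caused by Vpr and the record does not say whether a fall means rescue or toxicity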
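Fission yeast strain RE007, carrying one chromosomally integrated HIV-1 vpr copy, was seeded at OD 0.01 in PMG+AL medium with 23 nL pinned compound. After 24 h at 30 °C and 99% humidity, viability was read by BacTiter-Glo luminescence.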
LASV entry inh: Lassa virus entry inhibition; Potency, µM (top dose mostly 37.9 µM), for inactives: at the top dose activity change, negative = inhibition, hits mostly inhibitors; hit rate 1.2% among 300,000; Lassa virus pseudotype entry inhibition, cell reporter; control for the full effect not named in the record; AID 540256; active means well fitted inhibition curve with a large enough effect; inconclusive means small, poorly fitted or top-dose-only effect, or effect the other way; inactive means flat fitted curve, though single readings scatter; tested in HEK293 cells; further: on the % scale 0 is the no-effect control and ±100 the full control effect; nearly all actives have a fitted effect of over 50% in size; luciferase read-out
Marburg entry inh: blocks Marburg virus binding to or entry into cells. hit rate 1.8% among 300,000. AID 540276. Potency, µM (top dose mostly 37.8 µM), inactives show top-dose activity change, negative = inhibition, actives largely listed as inhibitors. Marburg virus pseudotyped entry inhibition, cell reporter; control for the full effect not named in the record; about a third of the inactives were read at about 46 µM; active = well fitted inhibition curve with a large enough effect; inconclusive = small, poorly fitted or top-dose-only effect, or effect the other way; inactive = flat fitted curve, though single readings scatter; tested in HEK293 cells; about a fifth of its hits are not listed in these tables; further: on the % scale 0 is the no-effect control and ±100 the full control effect; luciferase read-out
Cruzain inh Det: inhibitors of Trypanosoma cruzi cruzain with detergent; hit rate 0.43% among 200,000; AID 1478; purified cruzain, Z-FR-AMC fluorescence, 0.01% Triton; Potency, µM, for inactives: max response, negative = inhibition, usual class: inhibitors; active means well fitted curve in the direction sought with a large enough effect; inconclusive means small, poorly fitted or top-dose-only effect, or another doubt; inactive means no such curve, though single readings can be large; an effect the other way counts as inactive or inconclusive;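 further: plate controls were neutral wells for no effect and buffer without enzyme for full effect; nearly all actives have a fitted effect of over 40% in size; top concentration of the series not given in the record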
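Read-out: AMC fluorescence (360 nm excitation, 450 nm emission), four reads over 2 min, first-to-third difference used. Conditions: cruzain 1.5 nM, Z-FR-AMC 2 uM, pH 5.5 acetate, 5 mM DTT, 0.01% Triton X-100.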
SARS PLpro yeast: blocks SARS-CoV papain-like protease in a yeast assay; hit rate 0.19% among 330,000; Potency, µM (series often up to 32.9 µM), for inactives: at the highest dose activity, positive = growth rescue; S. cerevisiae expressing SARS-CoV PLpro, growth rescue; control for the full effect not named in the record; AID 485353; further: 0% is about no effect; nearly all actives have a fitted effect of over 55% in size; growth read by luminescence after 48 h
Active calls of the source: *; ? = inconclusive; . = not tested or not shown; & = joins results of further samples; [ ] = dose if it differs, or a comment. Unless noted, the call rests on the fitted dose curve; in most records, active means well fitted rising curve with a large enough effect; inconclusive means small, poorly fitted or top-dose-only effect; inactive means no such curve, though single readings can be large or run the other way. Potency means the concentration at half of the fitted maximal effect.

cpd | mol | 2A StopGo | Cruzain noTriton | NS1 function inh | RE007 growth inh
1 | Cc1cc[n+](CC(=O)c2ccc(NC(=O)c3ccccc3)cc2)c2ccccc12 | ? | . | -1% | 15%
2 | CC1CCc2nc(NC(=O)CSc3nc4ccccc4o3)sc2C1 (stereo not given) | ? | -17% | 1% | 1%
3 | CCC(=O)Nc1ccc(C(=O)CSc2nnc(-c3ccc(O)cc3)n2CC2CCCO2)cc1OC (stereo not given) | 10% | 0% | -3% | 8%
4 | Cc1cccc(NC(=O)CCN2CCC(C(N)=O)CC2)c1 | -7% | . | 14% | 3%
5 | CCOc1ccccc1Nc1nnc(Cc2ccccc2Cl)c(=O)[nH]1 | -9% | -6% | -64% | -27%
6 | O=C1C=C(c2ccccc2)C[C@H](c2cccs2)[C@H]1n1nnc([N+](=O)[O-])n1 | -16% | ? | 12% | 4%
7 | Nc1ccc2nc(SCc3cccc(F)c3)sc2c1 | 3% | . | . | 85%
8 | COC(=O)c1ccc(NC(=O)CSc2nc3[nH]ncc3c(=O)[nH]2)cc1 | -2% | . | . | -10%
9 | CCOC(=O)C1CCCN(C2CC(=O)N(c3cccc(C)c3)C2=O)C1 (stereo not given) | 1% | 7% | -53% | 25µM*
10 | CCOc1cccc(NC(=O)CSc2nc(C)c3c(c2C#N)CCCC3)c1 | 13% | 7.9µM* | -2% | -1%
11 | CC1=NN(Cc2ccccc2)C(=O)/C1=C\c1ccc(N(C)C)cc1 | 0% | 2% | -11% | -21%
12 | CNc1c([N+](=O)[O-])cnn1-c1ccc(C)cc1 | -12% | 3% | -6% | 3%

cpd | LASV entry inh | Marburg entry inh | Cruzain inh Det | SARS PLpro yeast
1 | . | . | . | 1%
2 | ? | -26% | -2.5% | 1%
3 | -4% | -24% | -1.3% | 1%
4 | . | . | . | -1%
5 | -12% | -1% | -0.6% | 3%
6 | ? | 2µM* | -6.9% | -99%
7 | ? | ? | . | -13%
8 | 13% | 22%[46.1 µM] | . | -1%
9 | -22% | 2% | 5.2% | -18%
10 | -8% | 7% | 4.3% | -4%
11 | -3% | 5% | -2.0% | -2%
12 | 4% | 0% | -0.7% | 0%

New compounds follow
cpd | mol | 2A StopGo | Cruzain noTriton | NS1 function inh | RE007 growth inh
13 | O=C1CCCc2ccccc2N1Cc1c(Cl)cccc1Cl | 0% | 0% | -16% | 2%
14 | CCn1c(NC(=O)c2ccccc2F)c(-c2cccs2)c(=O)c2ccccc21 | -18% | . | 6% | -2%
15 | Cc1nn2cc(-c3ccc(-c4ccccc4)cc3)nc2s1 | -20% | 13µM* | -2% | -10%
16 | S=C(NCc1ccccc1)Nc1ccc(Cl)cc1 | 61%[activator] | . | -8% | 0%
17 | Cc1noc(C)c1CSc1nnc2sc3ccccc3n12 | 0% | -17% | -1% | -11%
18 | O=C(Nc1nnc(C2CC2)s1)c1ccncc1 | 28% | -4% | 4% | 2%
19 | CCCC1S/C(=N/N=C/c2ccc(OC)cc2)N(Cc2ccc(OC)cc2)C1=O (stereo not given) | -2% | -25% | 30% | 4%
20 | Cc1cnc(C(=O)OCC(=O)N2CCN(S(=O)(=O)c3ccc(Cl)cc3)CC2)cn1 | 0% | . | . | -2%
21 | O=C(NC(=S)Nc1ccc(N2CCOCC2)c(Cl)c1)C(c1ccccc1)c1ccccc1 | ? | ? | 6% | -3%
22 | O=C1NC(=Nc2ccccc2Cl)S/C1=C\c1cc([N+](=O)[O-])ccc1O | -3% | . | ? | -12%
23 | COc1ccc(C2=NOC(CNC(=O)c3ccccc3Br)C2)c(OC)c1 (stereo not given) | -3% | . | 2% | 14%
24 | O=[N+]([O-])c1ccc(OCc2cccc(COc3ccc([N+](=O)[O-])cc3)n2)cc1 | ? | 6% | 7% | 1%

cpd | LASV entry inh | Marburg entry inh | Cruzain inh Det | SARS PLpro yeast
13 | -14% | -7% | 4.1% | 5%
14 | . | . | . | 0%
15 | 11µM* | ? | -0.9% | 7%
16 | ? | 3%[46.1 µM] | . | 0%
17 | 5% | 6% | 5.1% | -4%
18 | 2% | 8% | 0.2% | -1%
19 | ? | 7% | 1.5% | -3%
20 | 17% | -4% | . | -7%
21 | -14% | -25% | -3.8% | -2%
22 | . | . | . | 6%
23 | . | . | . | -2%
24 | 5% | ? | 0.2% | 8%

Further structures:
cpd | mol | 2A StopGo | Cruzain noTriton | NS1 function inh | RE007 growth inh
25 | CCOc1cc(/C=C(\C#N)c2nc(-c3cccs3)c(NC(C)=O)s2)ccc1O | -5% | ? | 5% | -16%
26 | O=C1CCc2cc(NS(=O)(=O)c3ccc(Br)cc3)cc3c2N1CC3 | 43%[activator] | . | . | 1%
27 | O=C(CSc1nc2ccccc2nc1N1CCCCC1)N1CCN(c2ccccc2)CC1 | -28% | . | 30% | 15%
28 | Cc1ccc(S(=O)(=O)Cn2nnnc2CN(Cc2ccco2)CC2CCCO2)cc1 (stereo not given) | -14% | 12% | -3% | 27%
29 | O=C(C1=C[C@@H](c2ccc(C(F)(F)F)cc2)C[C@@H](OCCCCO)O1)N1CCN(Cc2ccccc2)CC1 | ? | . | -4% | -4%
30 | Cc1n[nH]c(=O)c2c(NC(=O)COC(=O)COc3cccc(Br)c3)oc(C)c12 | -10% | . | . | -8%
31 | O=C(NC1CCCCC1)c1cc([N+](=O)[O-])ccc1N1CCCC1 | -4% | . | 9% | -3%
32 | C/C(=C\C(=O)c1ccc(C)o1)Nc1ccc(C(=O)O)cc1C | 22% | -10% | 1% | -23%
33 | CCS(=O)(=O)c1ccc(O)c(NC(=O)CCCC(=O)O)c1 | 7% | . | -1% | -10%
34 | COc1ccc(C(=O)NCCc2csc(-c3ccc(Cl)cc3)n2)cc1 | -1% | ? | . | .
35 | Cc1ccc(C)c(Nc2ncnc(N)c2[N+](=O)[O-])c1 | -17% | -4% | 1% | -1%
36 | COc1ccc(-c2cc(C(F)(F)F)n3nc(C(=O)NCCCn4ccnc4)cc3n2)cc1 | 26% | -16% | 6% | -24%

cpd | LASV entry inh | Marburg entry inh | Cruzain inh Det | SARS PLpro yeast
25 | ? | ? | -5.0% | -29%
26 | -1%[46.1 µM] | 0% | . | 2%
27 | . | . | . | -1%
28 | 5% | -15%&-15% | -5.2% | 2%
29 | . | . | . | -1%
30 | -13% | 19% | . | -4%
31 | . | . | . | 3%
32 | -5% | ? | -5.9% | 0%
33 | -18% | -3% | . | 1%
34 | 2%[46.1 µM] | . | -17% | .
35 | 0% | -19% | -3.0% | 12%
36 | -21% | -25% | -21% | 8%

Single entries from the entries so far.
CCOC(=O)C1CCCN(C2CC(=O)N(c3cccc(C)c3)C2=O)C1 (stereo not given) in Cruzain noTriton → 7%
CCOc1cccc(NC(=O)CSc2nc(C)c3c(c2C#N)CCCC3)c1 in Cruzain inh Det → 4.3%

(list continues)
cpd | mol | 2A StopGo | Cruzain noTriton | NS1 function inh | RE007 growth inh
37 | COc1ccc(-c2nc(CS(=O)(=O)CC(=O)NCc3cccc(OC)c3OC)c(C)o2)cc1 | -8% | . | -18% | 18%
38 | CN1C(=O)C2ON(c3ccccc3)C(c3cccs3)C2C1=O (stereo not given) | -21% | 4% | 6% | -6%
39 | CCOC(CCn1ccc(O)c(Cc2ccc(Cl)cc2)c1=O)OCC | ? | . | 4% | 3%
40 | CCN(CC)S(=O)(=O)c1ccc(OCC2CCCCO2)c([N+](=O)[O-])c1 (stereo not given) | 11% | . | -12% | -2%
41 | O=C1C(Cc2ccc(F)cc2)SC(=Nc2ccccc2)N1c1ccccc1 (stereo not given) | -20% | 1% | 16% | 0%
42 | CCOC(=O)C1=C(COc2ccc(C)cc2)NC(=O)NC1c1cc(C)ccc1C (stereo not given) | -9% | 17% | -5% | -19%
43 | CN(C)CCN(C(=O)c1ccc2ccccc2c1)c1nc2c(F)cc(F)cc2s1 | -19% | . | -51% | 11%
44 | O=[N+]([O-])c1cc(S(=O)(=O)Nc2cccc(Cl)c2)ccc1N/N=C/c1ccc(N2CCOCC2)cc1 | 60%[activator] | . | 1% | 11%
45 | Cc1onc(-c2ccccc2)c1CNS(=O)(=O)c1ccccc1[N+](=O)[O-] | 18% | . | -4% | 0%
46 | COc1ccc(CSc2nc(C)cc(C)c2S(C)(=O)=O)cc1 | ? | . | . | -8%
47 | CCOC(=O)c1ccc(-c2ccc(/C=C(\C#N)C(=O)Nc3ccc(C)cc3)o2)cc1 | -5% | -10% | . | .
48 | O=C(Nc1ccccc1C(=O)N/N=C/c1ccco1)c1ccc(Cl)cc1 | 18% | -12% | -4% | ?

cpd | LASV entry inh | Marburg entry inh | Cruzain inh Det | SARS PLpro yeast
37 | . | . | . | -8%
38 | ? | 2% | -1.2% | 3%
39 | . | . | . | 0%
40 | ? | 16%[46.1 µM] | . | 0%
41 | 6% | ? | -5.0% | -24%
42 | -3% | ? | -0.3% | 6%
43 | . | . | . | -17%
44 | . | . | . | 0%
45 | -2% | -6% | . | 0%
46 | 0% | ? | . | -1%
47 | -9%[46.1 µM] | . | 1.5% | .
48 | 4% | 4% | -3.0% | -19%

Retrieved by compound from the list above, three records:
cpd | mol | 2A StopGo | Cruzain noTriton | NS1 function inh | RE007 growth inh
38 | CN1C(=O)C2ON(c3ccccc3)C(c3cccs3)C2C1=O (stereo not given) | -21% | 4% | 6% | -6%
42 | CCOC(=O)C1=C(COc2ccc(C)cc2)NC(=O)NC1c1cc(C)ccc1C (stereo not given) | -9% | 17% | -5% | -19%
44 | O=[N+]([O-])c1cc(S(=O)(=O)Nc2cccc(Cl)c2)ccc1N/N=C/c1ccc(N2CCOCC2)cc1 | 60%[activator] | . | 1% | 11%

cpd | LASV entry inh | Marburg entry inh | Cruzain inh Det | SARS PLpro yeast
38 | ? | 2% | -1.2% | 3%
42 | -3% | ? | -0.3% | 6%
44 | . | . | . | 0%

Screening results from PubChem BioAssay.

Compounds were not picked by outcome (roughly 4.7% active in at least one column).
